Mtb bLac sens: beta-lactam sensitization of Mtb H37Rv, H37Rv. actives 0.27% (n = 330,000). inhibition, % at 25 µM. M. tuberculosis H37Rv growth with meropenem, percent inhibition; hits of this screen are not shown here. AID 434955, 2010;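 active means about 74% or more and at least 40 points above the plate without the antibiotic, then above 30% in a dose series; inconclusive means first-round hits that could not be retested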;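 further: growth measured after seven days incubation then overnight dye step; 0% = bacteria only wells and 100% = bacteria with antibiotic; twin plates without the antibiotic show which effects depend on it; some results filed as inactive read as strong as hits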
Arbovirus inh: antivirals against arbovirus infection, primary screen, cell-based, full library, 10K replicate subset; arbovirus infection cell-based antiviral screen; inhibition, % at 10 µM; actives 0.37% (n = 200,000);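 active means inhibition from about 30%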;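 further: bluetongue infection of BSR cells; cell survival read as ATP light after 72 h; 0% = infected wells without compound and 100% = uninfected wells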
RecA splice inh: Mtb RecA intein splicing inhibitors, primary screen, biochemical, fluorescence, HTS | Protein RecA (Mycobacterium tuberculosis (strain ATCC 25618 / H37Rv)), P9WHJ3 | cell-free RecA intein splicing | inhibition, %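 (about 9 µM by stock and volumes)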 | actives 0.75% (n = 290,000); in the data active means inhibition above about 30%; inconclusive means no clear call, values can overlap the other calls;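 further: 0% = vehicle wells and 100% = reference inhibitor control wells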
Target sequence (P9WHJ3 whole entry, looked up, canonical isoform): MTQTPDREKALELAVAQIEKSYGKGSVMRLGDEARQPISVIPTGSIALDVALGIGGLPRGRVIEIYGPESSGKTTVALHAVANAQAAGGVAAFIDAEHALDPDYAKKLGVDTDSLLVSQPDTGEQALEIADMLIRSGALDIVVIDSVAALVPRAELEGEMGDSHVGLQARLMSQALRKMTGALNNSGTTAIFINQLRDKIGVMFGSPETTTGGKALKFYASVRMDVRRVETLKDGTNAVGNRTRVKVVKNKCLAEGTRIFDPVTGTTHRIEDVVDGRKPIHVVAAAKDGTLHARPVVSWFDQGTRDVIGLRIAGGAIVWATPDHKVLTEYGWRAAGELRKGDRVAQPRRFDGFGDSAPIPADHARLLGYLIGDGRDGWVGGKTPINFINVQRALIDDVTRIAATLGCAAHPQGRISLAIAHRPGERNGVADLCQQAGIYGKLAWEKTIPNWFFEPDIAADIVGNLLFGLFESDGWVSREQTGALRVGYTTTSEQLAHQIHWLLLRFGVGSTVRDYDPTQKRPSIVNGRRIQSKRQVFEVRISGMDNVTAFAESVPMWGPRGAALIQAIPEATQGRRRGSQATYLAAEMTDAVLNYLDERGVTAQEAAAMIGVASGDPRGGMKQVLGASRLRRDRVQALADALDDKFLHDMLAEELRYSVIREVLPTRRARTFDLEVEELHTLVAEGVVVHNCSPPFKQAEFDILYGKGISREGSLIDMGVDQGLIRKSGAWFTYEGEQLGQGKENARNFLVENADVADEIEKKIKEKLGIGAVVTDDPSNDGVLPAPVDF
Mtb growth: M. tuberculosis H37Rv growth inhibitors, H37Rv strain (AID 1626) | M. tuberculosis H37Rv growth inhibition; higher % means a stronger effect | one-dose inhibition, % at 10 µM; IC50 in µM for titrated hits | actives 0.95% (n = 220,000);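 active means confirmed in a dose series; inconclusive means inhibition above 80% but not taken into the dose series; inactive means below 80% or under 30% at every dose of the series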;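 further: bacteria incubated seven days before Alamar blue readout; 0% = bacteria only wells and 100% = bacteria with antibiotic wells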
YopH inh: YopH tyrosine phosphatase inhibitors, primary screen, biochemical, fluorescence Ex485/Em525. YopH tyrosine phosphatase [Yersinia enterocolitica]. inhibition, %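 (about 10 µM by stock and volumes)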. actives 0.16% (n = 140,000);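 active means inhibition of 50% or more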;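 further: controls were vehicle for no effect and minimum signal wells for full effect; inactives centre near -20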
Arbovirus inh repeat: further read-out of Arbovirus inh, marked with its call; inhibition, %; measured here: 10K subset replicate screen; many hits read low in the repeat;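 first of two repeat runs on a subset; 0% = infected and 100% = uninfected wells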
An asterisk follows results filed as active; ? = inconclusive; / = no result given.

SMILES	Mtb bLac sens	Arbovirus inh	RecA splice inh	Mtb growth	YopH inh	others
CCOc1cc(/C=C2/C(=N)N3OC(C)=CC3=NC2=O)ccc1OC(=O)c1ccco1	58	10	4.5	0%	/
CCOC(=O)CCCNC(=O)CCNC(=O)c1ccc(OC)cc1	1	6	-6.9	-4%	-41
O=C(NCc1ccccc1)NCc1cccs1	5	-4	-3.8	3%	/
CCn1cc(CN2CCC(C(=O)Nc3ccc(Oc4ccccc4)nc3)CC2)cn1	-5	/	0.8	/	/
O=c1c(F)cn(C2CCCO2)c(=O)n1Cc1ccccc1F (configuration not stated)	10	5	-0.4	4%	-24
C/C(=N\NC(N)=O)c1ccc(Cl)s1	-8	/	0.2	/	/
O=C(C1CCCCC1)N1CCN(S(=O)(=O)c2ccc(Br)cc2)CC1	6	7	0.9	-2%	0
CCN1CC2CCCC3(C1)C(=O)NC1(CCCCC1)N=C23 (configuration not stated)	13	2	-1.2	-5%	-40
COc1ccc(-c2nc(C#N)c(NCc3ccccc3Cl)o2)cc1OC	4	-19	0.8	5%	-47
Fc1ccc(NC(=S)N2CCn3cccc3C2c2cccnc2)cc1 (configuration not stated)	3	18	3.2	-3%	/
COC(=O)c1sccc1NC(=S)Nc1ccc(F)cc1F	-15	-2	0.3	-13%	/
Cc1[nH][nH]c(=O)c1C(c1ccc(-c2ccc(F)cc2)o1)c1c(C)[nH][nH]c1=O	17	-11	97*	5%	/
CCCSc1nnc(-c2cccc(S(=O)(=O)N(C)C)c2)n1-c1cc(OC)ccc1OC	-1	2	0.5	-5%	-24
N/C(=N\OC(=O)c1ccc2c(c1)OCO2)c1ccc(Cl)cc1	-7	1	3.2	-4%	-48
CN(C)S(=O)(=O)Oc1ccsc1C(=O)Nc1ccc(Cl)cc1	33	-2	/	6%	-34
COc1ccc(CCNc2cc(C)nc3c(-c4ccccc4)cnn23)cc1OC	2	21	0.3	2%	-15
COC(CNC(=O)c1c[nH]c2ccc(S(=O)(=O)N(C)c3ccc(F)cc3)cc2c1=O)OC	2	/	0.2	/	/
Cc1nccn1Cc1cccc2ccccc12	0	-6	-3.1	/	-23
COc1ccc(C2c3c(ncn(CCCN4CCOCC4)c3=N)Oc3ccc4ccccc4c32)cc1OC (configuration not stated)	0	/	/	14%	/
CC(=O)N1CCN(CCN=Cc2c(O)n(-c3ccc(F)cc3)c(=S)[nH]c2=O)CC1	-1	/	-0.9	/	/
Cc1ccc(Cl)cc1N1CCN(S(=O)(=O)c2ccc(-c3ccc(=O)[nH]n3)o2)CC1	2	/	-0.9	/	/
COc1ccc(N(C)S(=O)(=O)c2cccc(C(=O)Nc3nnc(C4CC4)s3)c2)cc1	-8	22	0.7	-4%	/
Cc1nc2ccccc2n1CC(=O)NCc1ccccc1	-3	3	0.0	-8%	-20
O=C(COC(=O)C1=COCCO1)NCCCc1ccccc1	97	-1	-1.8	66%	-20
COc1ccc(C(=O)OCC(=O)Nc2ccc(Cl)c(C(F)(F)F)c2)c(OC)c1OC	3	23	4.3	2%	-27
Cc1ccc(C(=O)COC(=O)CCCC(=O)Nc2cc(C(F)(F)F)ccc2Cl)cc1C	2	10	-3.7	12%	-15
CC(=O)NNS(=O)(=O)c1ccccc1[N+](=O)[O-]	6	4	2.0	1%	-30
O=S(=O)(Cc1ccccc1)N1CCCCCC1	2	3	-4.5	-2%	-11
CCN1CCSc2ccc(C(=O)NCc3cccc(F)c3)cc21	-11	/	-10	/	/
Cc1cc(C(=O)CSc2nnc(-c3ccccc3)o2)c(C)n1CC1COc2ccccc2O1 (configuration not stated)	64	6	-1.1	1%	-32
COc1ccc(NC(=O)Cc2cccc(F)c2)cc1S(=O)(=O)Nc1ccccc1Cl	-11	/	-12	-6%	/
Cc1ccc(C(=O)C[n+]2ccccc2C)cc1[N+](=O)[O-]	1	/	0.7	/	/
CCc1cccc(NC(=O)NC2CCCCC2)c1	100	1	-0.7	-12%	-12
O=C(NCCc1ccc(Cl)cc1)c1cc(=O)[nH]c2ccccc12	-5	/	-1.3	/	/
COC(=O)c1ccc(CN2CCC(CO)(Cc3ccccc3Cl)CC2)cc1	-6	-6	4.4	-8%	/
COc1ccc(C(=O)NC2CCN(CC(=O)Nc3cccc(OC)c3)CC2)cc1	6	/	-0.8	/	/
CCCn1c2ccccc2c2nnc(SC(CC)C(=O)Nc3sc4c(c3C#N)CCCC4)nc21 (configuration not stated)	1	-4	-2.5	-8%	-8
Cc1c(C(=O)/C=C/N(C)C)nnn1-c1ccc(Cl)cc1Cl	-4	/	1.3	0%	/
COc1ccc(NS(=O)(=O)c2cc(NC(=O)C3CCCCC3)ccc2N2CCOCC2)cc1	4	-3	-1.9	2%	/
Cc1ccc(CCN2CC(C(=O)NCCN3CCCCCC3)CC2=O)cc1 (configuration not stated)	-25	-2	-1.5	0%	-24
CC(C)c1csc(CN2CCN(Cc3ccc(F)c(F)c3)C(CCO)C2)n1 (configuration not stated)	-7	4	-0.6	4%	/
O=C1N=c2ccccc2=C1c1sc(=S)n(-c2ccc(O)cc2)c1O	1	/	-2.1	8%	/
COc1ccc(CCNC(=O)c2[nH]c(C)c(C(C)=O)c2C)cc1	-1	2	-0.9	-9%	-22
CN1CCN(Cc2nc3ccccc3c(=O)n2Cc2nc(-c3cccc([N+](=O)[O-])c3)cs2)CC1	/	-7	/	-2%	/
CCc1ccc(NC(=O)NC2CCCCCCC2)cc1	100	/	-1.3	/	/

Among those listed so far, these contain four or more nitrogen atoms.
SMILES	Mtb bLac sens	Arbovirus inh	RecA splice inh	Mtb growth	YopH inh	others
CCn1cc(CN2CCC(C(=O)Nc3ccc(Oc4ccccc4)nc3)CC2)cn1	-5	/	0.8	/	/
Fc1ccc(NC(=S)N2CCn3cccc3C2c2cccnc2)cc1 (configuration not stated)	3	18	3.2	-3%	/
Cc1[nH][nH]c(=O)c1C(c1ccc(-c2ccc(F)cc2)o1)c1c(C)[nH][nH]c1=O	17	-11	97*	5%	/
CCCSc1nnc(-c2cccc(S(=O)(=O)N(C)C)c2)n1-c1cc(OC)ccc1OC	-1	2	0.5	-5%	-24
COc1ccc(CCNc2cc(C)nc3c(-c4ccccc4)cnn23)cc1OC	2	21	0.3	2%	-15
COc1ccc(C2c3c(ncn(CCCN4CCOCC4)c3=N)Oc3ccc4ccccc4c32)cc1OC (configuration not stated)	0	/	/	14%	/
CC(=O)N1CCN(CCN=Cc2c(O)n(-c3ccc(F)cc3)c(=S)[nH]c2=O)CC1	-1	/	-0.9	/	/
Cc1ccc(Cl)cc1N1CCN(S(=O)(=O)c2ccc(-c3ccc(=O)[nH]n3)o2)CC1	2	/	-0.9	/	/
COc1ccc(N(C)S(=O)(=O)c2cccc(C(=O)Nc3nnc(C4CC4)s3)c2)cc1	-8	22	0.7	-4%	/
CCCn1c2ccccc2c2nnc(SC(CC)C(=O)Nc3sc4c(c3C#N)CCCC4)nc21 (configuration not stated)	1	-4	-2.5	-8%	-8
Cc1c(C(=O)/C=C/N(C)C)nnn1-c1ccc(Cl)cc1Cl	-4	/	1.3	0%	/
CN1CCN(Cc2nc3ccccc3c(=O)n2Cc2nc(-c3cccc([N+](=O)[O-])c3)cs2)CC1	/	-7	/	-2%	/

New compounds follow.
SMILES	Mtb bLac sens	Arbovirus inh	RecA splice inh	Mtb growth	YopH inh	others
CC(C)(CO)CNC(=O)c1ccc2nc(Cc3cccc(Cl)c3)oc2c1	-1	/	0.4	/	/
CNS(=O)(=O)c1cnccc1N1CCN(c2cccc(C)c2)CC1	-22	10	-1.8	/	-21
C/C(=N\NC(=O)c1csc(C)c1C)c1ccc(Cl)s1	63	-2	-0.2	-4%	-19
O=C(c1ccc(F)cc1)N1CCN2C(=O)c3ccccc3C12c1ccc(Cl)cc1 (configuration not stated)	4	-4	7.3	6%	/
CCOC(=O)c1ccc(N2C(=O)CC(N3CC=C(c4ccc(F)cc4)CC3)C2=O)cc1 (configuration not stated)	24	2	-5.7	76%	-35
COc1ccc(-c2csc(NC(=O)COC(=O)Cc3ccccc3)n2)cc1OC	5	1	1.6	43%	-9
COCCN(C(=O)COC(=O)CCOc1ccccc1C)c1c(N)n(Cc2ccccc2)c(=O)[nH]c1=O	0	/	2.0	/	/
COc1ccc(/C=N/OCc2nc3c4c(ncn3n2)Oc2ccc3ccccc3c2C4c2ccccc2)cc1 (configuration not stated)	-8	6	2.3	-2%	-15
CC1CCCN(C(=O)CNS(=O)(=O)c2cccs2)C1 (configuration not stated)	-1	/	0.0	/	/
Cc1ccc2nc(-c3ccncc3)cc(-c3ccccc3)c2c1	98	-22	5.2	9%	-32
Cc1c(NS(=O)(=O)c2ccc(N3CCCCC3)c([N+](=O)[O-])c2)c(=O)n(-c2ccccc2)n1C	?	8	0.7	4%	-29
O=c1[nH][nH]c(=S)n1C1CCCCC1	-6	/	0.0	-4%	/
COc1ccccc1N1CCN(S(=O)(=O)/C=C/c2ccccc2)CC1	-10	9	-2.6	0%	-14
CCc1cccc(C)c1NS(=O)(=O)c1cc(Br)cnc1N	-2	/	1.7	/	/
Cc1nc(C)n(C(C)CNC(=O)c2ccccc2)n1 (configuration not stated)	-4	/	-2.1	/	/
Cc1cc(C)n(Cc2ccccc2F)c(=O)c1C#N	1	7	-5.4	/	1	Arbovirus inh repeat=7
Cc1ccc(Cl)cc1N1CCN(Cc2cc(=O)n3ccsc3n2)CC1	0	-1	8.3	-1%	/
CCCCC(=O)Oc1c(S(=O)(=O)c2ccccc2)c(C)nn1C(C)(C)C	?	/	5.1	/	/
COc1cccc2cc(C(=O)NC3CC4CCC3C4)oc12 (configuration not stated)	13	/	1.0	/	/
Cc1cccc(NC(=O)CSc2nc3[nH]ncc3c(=O)[nH]2)c1	-7	0	1.3	8%	-23
CCOC(=O)/C=C1\SCC(=O)N1CC(=O)NC(C)c1ccc(F)cc1 (configuration not stated)	-7	2	-2.5	8%	-10
COC(=O)C1=C(c2ccccc2)C[C@@H]2CC[C@H]1N2C(=O)NCCCOC(C)C	-2	/	-1.5	-3%	/
CC(/C=C1\SC(=O)N(CCCC(=O)O)C1=O)=C\c1ccccc1	5	25	5.8	3%	-7
O=C(Nc1cccc([N+](=O)[O-])c1)Nn1cnnc1	-1	/	1.9	/	/
O=C(CCC(=O)N1CCOc2ccccc21)NCc1ccccn1	-9	/	-0.8	/	/
CCn1c(SCC(=O)N2CC(C)OC(C)C2)nc2c([nH]c3ccccc32)c1=O (configuration not stated)	?	/	4.7	/	/
CC1CN(C(=O)c2cccc(Oc3ccccc3)c2)CC(C)O1 (configuration not stated)	-14	/	-0.1	/	/
COc1cc2c(cc1OC)C(C(=O)NCC1COc3ccccc3O1)C(c1cccnc1)N(C)C2=O (configuration not stated)	0	4	/	-5%	-36
Clc1ccc(-n2nnnc2CN2CCOCC2)cc1	-5	-2	0.1	-16%	-29
Cc1cccn2c(=O)nc(SCC(=O)c3ccccc3)nc12	-6	/	4.8	/	/
CCC(C)N1C(=O)S/C(=C/c2ccc(Sc3nc4ccccc4[nH]3)o2)C1=O (configuration not stated)	21	-26	4.8	19%	-35
CC(C)(Oc1ccc(Cl)cc1)C(=O)NC1=NN(c2ccccc2)C(=O)C1	3	35*	12	7%	-6
Cc1ccc(S(=O)(=O)c2cc3c(=O)n4ccccc4nc3n(CCc3ccccc3)c2=N)cc1	7	/	-2.1	/	/
CCc1ccc(-c2cc3c(=O)n(CC(=O)NCCCN4CCN(Cc5ccccc5)CC4)nc(C)n3n2)cc1	100	/	-7.7	/	/
Cc1ccc(CN(C)C(=O)c2cccc(S(=O)(=O)N3CCN(Cc4ccccc4)CC3)c2)o1	1	/	2.2	/	/
CCC(C)NCCOCCOc1ccc(Br)cc1 (configuration not stated)	-4	-7	1.1	6%	/
CCOC(=O)CN(C(=O)CSc1nnc(-c2ccc(OC)c(OC)c2)o1)c1ccc(F)cc1	-5	-3	1.8	0%	-30
CCOc1cc(C(=O)N/N=C/C2CC=CCC2)cc(OCC)c1OCC (configuration not stated)	7	-7	-3.2	71%	-18
CCC(C)[C@H](NC(=O)Nc1ccccc1F)C(=O)OC (some centres not stated)	-2	/	2.4	0%	/
CCCc1c(C)nc(N2CCN(c3ccccc3OC)CC2)[nH]c1=O	-7	/	-3.3	/	/
CC1CN(C(=O)c2c([N+](=O)[O-])cnn2C)CC(C)O1 (configuration not stated)	-3	-8	-1.6	-5%	-6
COCCN(C(=O)CNC(=O)c1ccco1)C(C(=O)NC1CCCC1)c1ccc(F)cc1 (configuration not stated)	-1	/	3.9	/	/
Cc1cc(C)cc(N(CC(=O)N2CCOCC2)S(=O)(=O)c2ccccc2)c1	-4	3	-2.4	-7%	-32

Source: PubChem BioAssay (several laboratories)

Not all compounds are listed; rates above refer to the full screens.
